Screening results as filed in PubChem.
YB-1 expr inh – YB-1 expression inhibition; U2OS, qRT-PCR YB-1 vs CDIP delta delta Cp, 16 h; active compounds read high; zero = DMSO, each unit about twofold; delta delta Cp (YB-1 minus CDIP) (concentration not given with the values); hit rate 0.37% among 30,000;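 active = delta delta Cp rounded down to an integer at or above 3, about 3 SD of DMSO wells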;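 note: higher means less YB-1 transcript or more CDIP transcript relative to DMSO; stock transfer was 100 nL into about 100 µL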
PD-1 reversal – reversal of PD-1 mediated T-cell inhibition. primary human CD4 T cells, PD-L1 beads, CellTiter-Glo 96 h. activation, % (concentration not given with the values). 29,000 tested, under 10 active;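 active = replicate mean of 50% or more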;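 note: 0% = median vehicle wells and 100% = positive control; 100 nL library stock added to about 50 µL; numbers are from one replicate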
Shh pathway inh – Sonic Hedgehog pathway inhibition; Shh-LIGHT2 Gli-luciferase reporter, 30 h; inhibition, % (no concentration beside the values); hit rate 2.1% among 22,000;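 active = replicate mean of 65% or more; inconclusive = mean lower but half the replicates past it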;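 note: pathway switched on by Shh-conditioned medium diluted 1 in 25 in low serum; 100 nL library stock added to about 40 µL; 0% = median of neutral wells and 100% = positive control level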
MITF inhib – blocks MITF activity; TRPM1 promoter luciferase, luminescence, 24 h; inhibition, % (test concentration not listed); hit rate 0.28% among 37,000;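 active = most replicates at 85% or more, or half of them and the mean; inconclusive = half reach 85% but not the mean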;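 note: human melanocyte line stably carrying TRPM1 promoter luciferase reporter; 0% = vehicle wells and 100% = a positive control; the first replicate is given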
Active calls of the source: *; ? = inconclusive; / = no result given. Some of the compounds tested, so the mix of outcomes need not match the whole.

Each structure is followed by: Shh pathway inh, MITF inhib, YB-1 expr inh, PD-1 reversal
COc1ccc(OC)c(NC(=O)COc2ccc(C(C)(C)C)cc2)c1
  /, -24.4, /, -2.1
NC(=O)CSc1oc(-c2ccco2)nc1S(=O)(=O)c1ccccc1
  /, -9.7, /, 1.0
COC(=O)c1ccccc1NC(=O)COc1ccc(C)c(C)c1
  /, -39.9, /, -1.0
CC(C)NC(=O)N(C)C[C@@H]1Oc2c(NC(=O)CCCCCC(=O)Nc3ccccc3N)cccc2C(=O)N([C@@H](C)CO)C[C@@H]1C
  /, -36.5, -0.44, 1.1
COC(=O)C1=C(C)NC(C)=C(C(=O)OCCCN2CCC(c3ccccc3)(c3ccccc3)CC2)C1c1cccc([N+](=O)[O-])c1 (stereo not drawn)
  72.0*, 109.7*, 0.132, /
COc1ccc(CN(C)C[C@@H]2OCCCC[C@@H](C)Oc3ccc(N(C)C)cc3C(=O)N([C@H](C)CO)C[C@@H]2C)cc1
  -23.9, -12.8, -0.336, /
COc1ccc(NC(=O)Nc2ccc3c(c2)C(=O)N([C@H](C)CO)C[C@@H](C)[C@H](CN(C)C(=O)NC2CCCCC2)O3)cc1
  /, 4.0, 0.304, -0.7
COc1ccc(NC(=O)N(C)C[C@H]2Oc3ccc(NC(=O)C4CCCCC4)cc3CC(=O)N([C@@H](C)CO)C[C@H]2C)cc1
  -12.7, 3.3, 0.0382, -0.9
Cc1noc(C)c1S(=O)(=O)N(C)C[C@H]1Oc2ccc(NC(=O)Cc3cn(C)c4ccccc34)cc2CC(=O)N([C@@H](C)CO)C[C@H]1C
  -12.5, 7.0, 0.0187, -0.9
CCOC(=O)C(C#N)C1(c2c(C)[nH]n(-c3ccccc3)c2=O)C(=O)N(c2ccccc2)N=C1C (stereo not drawn)
  -33.8, 3.3, -0.158, 1.0
Cc1noc(C)c1S(=O)(=O)Nc1ccc2c(c1)CC(=O)N([C@@H](C)CO)C[C@H](C)[C@H](CN(C)CC1CC1)O2
  -10.6, -0.2, 0.267, /
C[C@@H]1CCCCO[C@@H](CN(C)C(=O)CCC(F)(F)F)[C@@H](C)CN([C@H](C)CO)C(=O)c2cc(NS(=O)(=O)c3ccc(Cl)cc3)ccc2O1
  -5.2, 21.9, 0.0232, -2.5
CC1(C)CCC(C)(C)c2cc(C(=O)Nc3ccc(C(=O)O)cc3)ccc21
  ?, -28.2, 0.14, /
CCC(C)NC(=O)c1ccc(N(CC)CC)cc1 (stereo not drawn)
  -63.6, -15.7, -0.971, 0.7
Cc1ccc(S(=O)(=O)N(C)C[C@H]2Oc3c(NC(=O)C4CCOCC4)cccc3C(=O)N([C@H](C)CO)C[C@@H]2C)cc1
  7.3, 2.2, -0.022, /
O=C(CC1NC(=O)NC1=O)Nc1ccc(Cl)cc1 (stereo not drawn)
  /, -15.8, /, 1.9
COc1ccc(CN(C)C[C@@H]2OCCCC[C@@H](C)Oc3ccc(NS(=O)(=O)c4cccs4)cc3C(=O)N([C@H](C)CO)C[C@@H]2C)cc1
  /, -0.1, 0.0426, /
CC(=O)Oc1ccc2ccc3ccc(OC(C)=O)c4ccc1c2c34
  53.4, 11.3, -0.518, -5.8
COc1ccc(S(=O)(=O)N(C)C[C@@H]2Oc3ccc(NC(=O)Cc4cn(C)c5ccccc45)cc3CC(=O)N([C@H](C)CO)C[C@H]2C)cc1
  4.7, 12.1, -0.0315, -4.0
COc1ccc(S(=O)(=O)N(C)C[C@H]2Oc3ccc(NS(=O)(=O)c4ccc(Cl)cc4)cc3C(=O)N([C@H](C)CO)C[C@H]2C)cc1
  -33.6, -9.2, 0.105, /
C[C@H]1CN([C@@H](C)CO)C(=O)Cc2cc(NS(=O)(=O)c3ccc(Cl)cc3)ccc2O[C@@H]1CN(C)CC1CC1
  4.9, -12.2, -0.196, /
Cc1ccccc1NC(=O)c1cccc(Cn2cc(C(F)(F)F)ccc2=O)c1
  7.7, 5.5, 0.158, 2.2
CC(C)(C)NC(=O)N1c2ccccc2Sc2ccccc21
  -5.4, 27.0, 0.18, -0.8
CC(C)NC(=O)Nc1ccc2c(c1)CC(=O)N([C@H](C)CO)C[C@@H](C)[C@@H](CN(C)Cc1ccncc1)O2
  -22.2, -2.3, 0.0736, -0.3
N#Cc1ccccc1NC(=O)CSc1nnc(-c2ccccc2O)n1-c1ccccc1
  /, 5.8, /, -2.8
C[C@@H]1CCCCO[C@@H](CN(C)C(=O)Cc2ccccc2)[C@@H](C)CN([C@H](C)CO)C(=O)c2cc(NC(=O)Nc3ccc4c(c3)OCO4)ccc2O1
  -2.8, -10.9, 0.232, 0.6
Cc1cc(C)c2c3c1C1C=CCC1CN3C(C(=O)O)C1CC=CC21 (stereo not drawn)
  39.8, 8.6, 0.203, -1.2
COc1ccc(NC(=O)N(C)C[C@H]2Oc3c(NS(=O)(=O)c4ccc(C)cc4)cccc3C(=O)N([C@H](C)CO)C[C@H]2C)cc1
  -3.9, -2.3, -0.00181, /
C[C@H]1CN([C@@H](C)CO)C(=O)c2cccc(NS(=O)(=O)c3ccc(Cl)cc3)c2O[C@@H]1CN(C)S(=O)(=O)c1cn(C)cn1
  16.4, 1.5, 0.00619, 0.4
C[C@@H]1CN([C@H](C)CO)C(=O)c2cccc(NS(C)(=O)=O)c2O[C@@H]1CN(C)S(C)(=O)=O
  18.6, -3.1, -0.157, 2.0

Record cards, from the list above.
COc1ccc(NC(=O)Nc2ccc3c(c2)C(=O)N([C@H](C)CO)C[C@@H](C)[C@H](CN(C)C(=O)NC2CCCCC2)O3)cc1 is entered as Shh pathway inh: /; MITF inhib: 4.0; YB-1 expr inh: 0.304; PD-1 reversal: -0.7
COc1ccc(NC(=O)N(C)C[C@H]2Oc3c(NS(=O)(=O)c4ccc(C)cc4)cccc3C(=O)N([C@H](C)CO)C[C@H]2C)cc1 is entered as Shh pathway inh: -3.9; MITF inhib: -2.3; YB-1 expr inh: -0.00181; PD-1 reversal: /

Further structures follow.
Each structure is followed by: Shh pathway inh, MITF inhib, YB-1 expr inh, PD-1 reversal
Cc1noc(C)c1NC(=O)N(C)C[C@H]1Oc2c(NS(=O)(=O)c3ccc(Cl)cc3)cccc2C(=O)N([C@@H](C)CO)C[C@@H]1C
  -17.2, -1.8, -0.0817, 0.3
CCOc1ccc(NC(=O)CCNC(=O)c2cn(-c3cccc(OC)c3)c(=O)c3ccccc23)cc1
  24.7, -21.0, 0.414, -2.7
Cc1ccc(NC(=O)c2sc3ncn(CC(=O)Nc4cc(C(F)(F)F)ccc4Cl)c(=O)c3c2C)c(C)c1
  /, -4.5, /, 1.5
C[C@@H]1CN([C@@H](C)CO)C(=O)Cc2cc(NS(C)(=O)=O)ccc2O[C@@H]1CN(C)Cc1ccc(C(F)(F)F)cc1
  -9.7, -20.1, -0.0101, 1.6
C[C@@H]1CCCCO[C@H](CN(C)Cc2ccc3c(c2)OCO3)[C@@H](C)CN([C@H](C)CO)C(=O)c2cc(NS(=O)(=O)c3ccc(Cl)cc3)ccc2O1
  27.2, -1.2, -0.147, 0.4
C[C@@H]1CN([C@H](C)CO)C(=O)c2cccc(NC(=O)Nc3cccc4ccccc34)c2O[C@@H]1CN(C)C
  -3.0, -2.0, -0.147, 1.6
C[C@H](CO)N1C[C@H](C)[C@H](CN(C)S(=O)(=O)c2cn(C)cn2)Oc2ccc(NC(=O)Nc3ccc4c(c3)OCO4)cc2CC1=O
  /, -3.4, -0.0354, /
COc1ccc(-n2c(C)nnc2SCC(=O)Nc2cccc(C(F)(F)F)c2)cc1
  /, -29.3, /, 1.6
C[C@@H]1CN([C@H](C)CO)C(=O)Cc2cc(NC(=O)Nc3ccccc3)ccc2O[C@H]1CN(C)C(=O)NC1CCCCC1
  -3.2, -9.2, -0.251, -0.2
Cc1noc(C)c1S(=O)(=O)Nc1ccc2c(c1)C(=O)N([C@@H](C)CO)C[C@@H](C)[C@H](CN(C)Cc1ccc(Cl)c(Cl)c1)O2
  /, 13.0, 0.0427, 0.3
C[C@@H]1CN([C@@H](C)CO)C(=O)c2cccc(NC(=O)c3nc4ccccc4s3)c2O[C@H]1CN(C)C(=O)Nc1ccc2c(c1)OCO2
  14.3, -8.7, -0.0251, -0.4
CC(=O)Oc1ccc(NC(=O)COc2ccccc2)c(C(=O)O)c1
  /, 1.5, /, 2.1
CC1(C)C(=O)C=C[C@@]2(C)C1CC(=O)[C@]1(C)C2CC[C@@]2(C)[C@H](c3ccoc3)OC(=O)[C@H]3O[C@]321 (stereo partly drawn)
  23.8, 69.2, -0.0708, /
CCOC(=O)c1c(NC(=O)Cc2cccc(OC)c2)sc2c1CCCC2
  /, 7.2, /, -2.2
CC(C)NC(=O)N(C)C[C@H]1Oc2ccc(NC(=O)Nc3cccc4ccccc34)cc2C(=O)N([C@@H](C)CO)C[C@H]1C
  8.1, 4.6, -0.38, 1.5
O=c1cc(-c2ccccc2)nc2scc(-c3ccc(Cl)cc3)n12
  -18.6, -4.5, -0.056, -0.1
O=c1cc(-c2ccccc2)[nH]c(=S)[nH]1
  /, 4.8, -0.24, -0.4
C[C@H](CO)N1C[C@H](C)[C@H](CN(C)Cc2ccc(C(=O)O)cc2)Oc2ccc(NS(=O)(=O)c3cn(C)cn3)cc2CC1=O
  -16.6, -8.4, 0.204, /
C[C@@H]1CN([C@@H](C)CO)C(=O)c2cc(NC(=O)Nc3ccccc3)ccc2O[C@H]1CN(C)Cc1ccc2c(c1)OCO2
  22.8, 1.9, -0.391, 0.1
Nc1ccc(C(=O)CC2(O)C(=O)Nc3ccc(F)cc32)cc1 (stereo not drawn)
  /, -52.4, /, -0.1
CCOC(=O)N1CCN(C(=O)c2ccc3c(=O)n(CC4CCCO4)c(=S)[nH]c3c2)CC1 (stereo not drawn)
  0.7, -4.8, -0.648, 3.5
COc1ccc(NC(=O)CN(c2ccccc2F)S(C)(=O)=O)cc1Cl
  /, 6.9, /, 0.4
CC(C)NC(=O)N(C)C[C@@H]1Oc2ccc(NS(=O)(=O)c3ccc(F)cc3)cc2CC(=O)N([C@H](C)CO)C[C@@H]1C
  -15.9, -12.4, -0.0708, 1.9
C[C@@H]1O[C@@H](O[C@H]2[C@H](O[C@H]3CC[C@@]4(C)C(CC[C@]5(C)C4CC=C4C6CC(C)(C)CC[C@]6(C(=O)O[C@@H]6O[C@H](CO[C@@H]7O[C@H](CO)[C@@H](O[C@@H]8O[C@@H](C)[C@H](O)[C@@H](O)[C@H]8O)[C@H](O)[C@H]7O)[C@@H](O)[C@H](O)[C@H]6O)CC[C@]45C)[C@]3(C)CO)OC[C@H](O)[C@@H]2O)[C@H](O)[C@H](O)[C@H]1O (stereo partly drawn)
  -7.7, /, -0.119, /
C[C@H](CO)N1C[C@H](C)[C@H](CN(C)S(C)(=O)=O)Oc2ccc(NC(=O)C3CCCCC3)cc2C1=O
  /, 1.3, -0.0335, /
CNC[C@H]1Oc2c(NC(=O)NC3CCCCC3)cccc2C(=O)N([C@@H](C)CO)C[C@@H]1C
  43.4, 5.5, 0.152, 1.2
C[C@@H]1CN([C@H](C)CO)C(=O)c2cc(NC(=O)c3ccncc3)ccc2O[C@H]1CN(C)S(=O)(=O)c1cccs1
  /, 6.8, 0.253, 0.3
C[C@@H]1CN([C@H](C)CO)C(=O)c2cccc(NC(=O)c3cnccn3)c2O[C@@H]1CN(C)C(=O)Nc1ccc(F)cc1
  -9.1, 1.1, -0.111, /
Cc1ccc(S(=O)(=O)N(C)C[C@H]2Oc3c(NS(=O)(=O)c4ccc(Cl)cc4)cccc3C(=O)N([C@@H](C)CO)C[C@H]2C)cc1
  7.5, 0.2, 0.226, -2.7
Cc1ccc(S(=O)(=O)Nc2cccc3c2O[C@@H](CN(C)C(=O)Nc2ccc(C(F)(F)F)cc2)[C@H](C)CN([C@H](C)CO)C3=O)cc1
  -25.1, 5.5, -0.0958, /

The results go on:
Each structure is followed by: Shh pathway inh, MITF inhib, YB-1 expr inh, PD-1 reversal
CCOC(=O)C1=NNCC1C(=O)OCC (stereo not drawn)
  /, 12.6, -0.176, 1.2
Cc1nc(SCC(=O)Nc2cccc(F)c2)c2c(C)c(C)sc2n1
  /, 10.5, /, -2.6
COc1ccc(S(=O)(=O)Nc2ccc3c(c2)C(=O)N([C@H](C)CO)C[C@H](C)[C@H](CN(C)C(=O)NC2CCCCC2)OCCCC[C@@H](C)O3)cc1
  4.2, 6.5, 0.369, 0.4
COc1cc(OC)c2ccc(=O)oc2c1
  7.1, -4.7, -0.117, /
C[C@H]1CN([C@@H](C)CO)C(=O)Cc2cc(NS(=O)(=O)c3cccs3)ccc2O[C@@H]1CN(C)C(=O)Nc1ccc2c(c1)OCO2
  0.9, -9.3, -0.11, -1.9
COc1ccc(C2=NN(S(C)(=O)=O)C(c3ccc(C)cc3)C2)cc1 (stereo not drawn)
  -207.9, 10.1, 0.0476, 0.0
COc1ccc(CN(C)C[C@H]2Oc3c(NC(=O)NC4CCCCC4)cccc3C(=O)N([C@H](C)CO)C[C@@H]2C)cc1
  21.4, 15.1, -0.277, -1.7
C[C@H]1CN([C@@H](C)CO)C(=O)Cc2cc(NC(=O)Nc3ccc4c(c3)OCO4)ccc2O[C@@H]1CN(C)C(=O)Nc1ccc(C(F)(F)F)cc1
  /, -0.4, -0.505, 0.1
CCn1c(SCC(=O)Nc2c(Cl)cc(Cl)cc2Cl)nnc1-c1ccccc1F
  /, -3.8, /, -2.5
C[C@@H]1CN([C@H](C)CO)C(=O)c2cccc(NC(=O)C3CCOCC3)c2O[C@H]1CN(C)S(=O)(=O)c1ccc(Cl)cc1
  -23.2, 5.1, 0.183, 0.1
